From PubChem BioAssay
RanGTP-Imp inh: inhibitors of RanGTP-importin-beta interaction, primary screen, biochemical, FRET, CFP-Ran, YFP-importin-beta, homogeneous. Ran GTPase (GTP-bound) - importin-beta complex. 300,000 compounds, 1.1% hits. cell-free CFP-Ran/YFP-importin-beta FRET ratio. AID 2216, 2009. inhibition, % (concentration not given with the values);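 active means most replicates above 15%; inconclusive means exactly half above 15%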;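 further: 0% = DMSO wells and 100% = Ran loaded with GDP instead of GTP; wells of about 40 µL received 100 nL stock; the first replicate is given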
LANA-H2A inh: blockers of LANA interaction with H2A/H2B – biochemical, FP readout, HTS, primary screen | inhibition, % (no concentration beside the values) | 320,000 compounds, 0.6% hits | AID 2629, 2010 | Protein LANA1 (Human herpesvirus 8 type P (isolate GK18)), Q9QR71 | cell-free LANA-H2A/H2B peptide, fluorescence polarization; in the data active means inhibition mostly above about 10%, no sharp cut-off; inactive means mostly below about 6.7%;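 further: stock transfer was 7.5 nL into about 10 µL; 0% = median of vehicle wells and 100% = median of positive control wells; one replicate is shown; the record names a cut of 25% in any replicate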
Target sequence (Q9QR71 whole entry, looked up): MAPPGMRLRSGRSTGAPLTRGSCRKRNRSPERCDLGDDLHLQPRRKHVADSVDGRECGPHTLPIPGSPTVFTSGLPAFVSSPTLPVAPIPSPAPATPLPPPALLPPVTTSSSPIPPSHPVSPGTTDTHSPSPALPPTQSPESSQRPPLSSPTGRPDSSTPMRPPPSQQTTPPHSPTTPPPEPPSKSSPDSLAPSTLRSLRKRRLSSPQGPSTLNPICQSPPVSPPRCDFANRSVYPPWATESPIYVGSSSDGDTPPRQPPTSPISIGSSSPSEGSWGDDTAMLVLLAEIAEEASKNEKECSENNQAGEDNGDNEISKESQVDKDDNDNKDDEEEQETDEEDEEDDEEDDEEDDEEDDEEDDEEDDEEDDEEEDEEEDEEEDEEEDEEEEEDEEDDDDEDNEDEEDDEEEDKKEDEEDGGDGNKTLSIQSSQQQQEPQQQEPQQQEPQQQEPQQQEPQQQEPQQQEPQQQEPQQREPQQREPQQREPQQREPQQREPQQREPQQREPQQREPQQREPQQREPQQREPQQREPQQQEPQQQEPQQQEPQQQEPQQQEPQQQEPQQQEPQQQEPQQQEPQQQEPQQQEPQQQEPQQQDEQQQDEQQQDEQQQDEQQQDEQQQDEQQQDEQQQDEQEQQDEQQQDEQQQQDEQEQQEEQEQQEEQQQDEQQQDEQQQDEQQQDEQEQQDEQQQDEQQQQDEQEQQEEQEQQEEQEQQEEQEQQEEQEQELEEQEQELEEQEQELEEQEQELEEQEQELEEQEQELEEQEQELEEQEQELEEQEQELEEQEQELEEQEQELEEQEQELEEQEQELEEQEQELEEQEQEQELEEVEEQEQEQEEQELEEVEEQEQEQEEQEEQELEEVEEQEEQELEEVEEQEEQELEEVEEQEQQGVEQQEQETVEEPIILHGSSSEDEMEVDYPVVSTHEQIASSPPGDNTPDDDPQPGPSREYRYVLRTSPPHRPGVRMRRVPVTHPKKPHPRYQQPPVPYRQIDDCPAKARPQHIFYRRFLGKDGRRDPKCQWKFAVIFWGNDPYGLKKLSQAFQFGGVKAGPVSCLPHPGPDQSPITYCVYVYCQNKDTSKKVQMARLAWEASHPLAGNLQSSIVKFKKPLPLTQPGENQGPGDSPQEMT
Beta cell apopt: inhibitors of cytokine-induced beta cell apoptosis, primary screen, luminescence | INS-1E cytokine-induced death, ATP luminescence, 48 h; percent of positive-control rescue, neutral wells zero | protection from apoptosis, % (no concentration beside the values) | 300,000 compounds, 0.8% hits;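 active means all replicates at 75% or more, or half of them and the mean; inconclusive means half reach 75% but not the mean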;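 further: 0% = cytokine-treated negative control wells and 100% = positive control rescue; higher means more ATP so stronger rescue from cytokine killing; wells of about 40 µL received 100 nL stock; the first replicate is given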
Calb FLC: C. albicans growth inhibition with fluconazole, primary screen, CaCi-2 strain, Alamar Blue fluorescence; growth inhibition, % (test concentration not listed); 300,000 compounds, 0.57% hits; C. albicans CaCi-2 (fluconazole-resistant clinical isolate) + fluconazole, 48 h;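 active means most replicates above 75%; inconclusive means exactly half above 75%; inactive means most below 75%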;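 further: all wells also contain fluconazole at 8 µg/ml as a sub-toxic cotreatment; 0% = median of DMSO wells and 100% = median of geldanamycin control wells; wells of about 8 µL received 7.5 nL stock; the first replicate is given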
Vif A3G: inhibitors of Vif binding to APOBEC3G peptide, primary screen, biochemical, TR-FRET, GST-Vif 1-94, biotin-A3G peptide, dose response retest (AID 1117319). TR-FRET GST-Vif / biotin-A3G peptide binding; higher % means a stronger effect; test concentration not given here; strong numbers were not always called active. inhibition, %; hits with a dose series show IC50 in µM. 260,000 compounds, 0.57% hits;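 active means above the screen mean plus three standard deviations and confirmed in dose response; inconclusive means results disagree or hit not tested in dose response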;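 further: Vif residues 1-94 fused to GST binding biotinylated APOBEC3G peptide 110-148; 0% = full assay without inhibitor and 100% = GST in place of GST-Vif; retest series ran down from 100 µM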
A1 inh: caspase 3/7 activation in MEF A1-2A-BIM cells, primary screen, A1 inhibitor project, cell-based, luminescence, HTS | caspase activation, % (test concentration not listed) | Caspase-Glo 3/7 luminescence, 3 h; percent of clofoctol response, vehicle zero | 330,000 compounds, 0.066% hits | AID 2462, 2010;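 active means over half of replicate activation scores above 10%, or exactly half above 10 with the replicate mean above 10; inconclusive means replicate mean below 10 yet half the replicates above 10; inactive means over half of replicates below 10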;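 further: wells of about 30 µL received 50 nL stock; many hits fall short of the cut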
T cruzi repl: inhibitors of intracellular T. cruzi growth, primary screen, luminescence, NIH3T3 host cells | T. cruzi beta-gal in NIH3T3, 90 h | 300,000 compounds, 1.4% hits | inhibition, % (concentration not given with the values);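 active means mean inhibition across valid replicates above about 55%, limit read from the data; inconclusive means mean below that limit but half or more replicates reach it; inactive means mean below it, under half of replicates reach it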;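 further: signal also drops with host cell toxicity which is not excluded here; 0% = plate median of DMSO wells and 100% = zero luminescence signal; higher percent means less beta-gal luminescence so fewer parasites; stock transfer was 50 nL into about 50 µL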
AF4-AF9 inh: inhibitors of AF4 peptide binding to AF9, primary screen, biochemical, AlphaScreen, biotin-AF4 peptide, FLAG-AF9, single point; Protein AF-9 (Homo sapiens), P42568; inhibition, % at 10 µM; 350,000 compounds, 0.47% hits; AID 651704, 2012;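 active means every replicate reaching a set inhibition limit, whatever the replicate mean, cut at about 25% in these data; inconclusive means mean inhibition reaches that limit but some replicates miss it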;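 further: 0% = plate neutral control median and 100% = total signal loss; the record names both 10 and 1 µM as test concentration; the first replicate is given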
An asterisk follows results filed as active; ? = inconclusive; . = no result given.

nr | SMILES | RanGTP-Imp inh | LANA-H2A inh | Beta cell apopt | Calb FLC | Vif A3G | A1 inh | T cruzi repl | AF4-AF9 inh
1 | COc1ccc(CC(=O)O/N=C(\N)Cc2ccc(OC)cc2)cc1 | -1.4 | 3.4 | -2 | -19 | 5% | 0.6 | -7 | .
2 | N#CCOC(=O)C1CSC2(c3ccc(Br)cc3)CCC(=O)N12 (stereo not given) | 2.8 | -3.7 | 0 | 3 | 5% | 1.1 | 4 | -0.9
3 | O=C(COC(=O)c1cccc(OC(F)F)c1)Nc1cccc(S(=O)(=O)N2CCCC2)c1 | . | 2.8 | 0 | . | . | -0.8 | . | -0.4
4 | Cn1c(SCC(=O)NNC(=O)c2ccccc2)nnc1C(F)(F)F | . | 11 | 2 | . | . | -0.8 | . | -0.5
5 | Cc1cc(-c2nc(C)c(C(=O)NN)s2)no1 | -1.9 | -2.2 | . | -20 | ? | 0.7 | . | -1.3
6 | CN(CC(=O)Nc1cccc(F)c1)CC(=O)Nc1ccccc1[N+](=O)[O-] | . | 2.1 | -5 | -12 | 1% | -0.6 | . | 2.8
7 | COc1ccc(/C=N/NC(=O)C(=O)N2CCCCCC2)cc1[N+](=O)[O-] | -0.3 | -2.0 | -12 | 2 | . | -0.8 | -1 | 4.0
8 | COc1ccccc1NC(=O)C(C)OC(=O)CCCOc1ccccc1 (stereo not given) | 7.1 | -3.8 | -2 | -2 | 3% | -1.4 | -16 | -0.3
9 | Nc1ccc(C(=O)OCc2csc(-c3ccccc3)n2)cc1[N+](=O)[O-] | 1.4 | -0.7 | 7 | 3 | 1% | -1.3 | 18 | .
10 | COc1ccccc1N1CCN(S(=O)(=O)c2ccc(F)cc2)CC1 | -0.8 | -0.5 | 0 | 0 | 4% | 0.6 | -9 | .
11 | COc1ccc(C(c2nnnn2Cc2cccs2)N2CCC(C(N)=O)CC2)c(OC)c1 (stereo not given) | 0.7 | -1.3 | -9 | 35 | 7% | -0.1 | -3 | .
12 | C=CCn1c(O)c(C=Nc2ccc(CN3CCCCC3)cc2)c(=O)[nH]c1=S | -18 | -0.2 | 0 | -20 | -5% | 0.4 | -19 | 0.3
13 | Cc1ccc(SCC(=O)NC(=O)c2ccc(S(=O)(=O)N(C)C)cc2)cc1C | -2.4 | 2.9 | -13 | -9 | -4% | -0.5 | -7 | .
14 | COC(=O)c1ccc(OCC(=O)NC2CCCCCC2)cc1 | 4.3 | -1.4 | 6 | -17 | 1% | 0.2 | -10 | -1.5
15 | COc1ccc(OC(=O)c2cnc3n(c2=O)CCS3)cc1 | -3.1 | 0.5 | -8 | 0 | . | 0.7 | -6 | -1.1
16 | Cc1ccnc(NS(=O)(=O)c2ccc(NC(=O)c3ccc4c(c3)OCCO4)cc2)n1 | ? | 3.1 | -3 | -11 | ? | -0.4 | 2 | -2.8
17 | Cc1ccc(C2CC(c3cccc(Br)c3)Nc3nnnn32)cc1 (stereo not given) | 0.6 | -1.9 | 4 | 27 | 11% | 0.3 | 17 | .
18 | O=C(CC(=O)N/N=C\c1ccc([N+](=O)[O-])cc1)NCCc1ccccc1 | 0.7 | -4.8 | 0 | 0 | 1% | 0.2 | 11 | -0.5
19 | CC(C)CC(NC(=O)OC(C)(C)C)C(=O)O (stereo not given) | 2.0 | 0.5 | -5 | -8 | -1% | 0.0 | -6 | 3.4
20 | C/C=C/C(=O)Nc1nnc(C2CCCCC2)s1 | 1.1 | -2.2 | -6 | -6 | -7% | 0.9 | -25 | -1.5
21 | CSc1sc(C(=O)N2CCc3ccccc32)cc1S(=O)(=O)C(C)C | -2.8 | 2.8 | 4 | 1 | -15% | -0.1 | -2 | 0.1
22 | COc1ccc(S(=O)(=O)Nc2c(C)n(C)n(-c3ccccc3)c2=O)cc1C(=O)O | 3.1 | 3.1 | . | 6 | . | 0.6 | 0 | -1.7
23 | Cn1c(CNc2nc(-c3ccccc3)cs2)nnc1SCC(=O)c1ccccc1 | -0.6 | 3.7 | -5 | 5 | -1% | 0.4 | 13 | .
24 | CC1CCCC(C)N1C(=O)CSc1nnc(NC(=O)c2cccs2)s1 (stereo not given) | 0.4 | -1.7 | -5 | 50 | 1% | -0.9 | 13 | .
25 | C/C(=N\Nc1cc(N2CCOCC2)ncn1)c1cccc([N+](=O)[O-])c1 | 2.5 | 9.7 | -24 | -37 | -2% | -0.1 | 13 | 0.0
26 | CCCOc1ccc(C(=O)Nc2ccc(S(=O)(=O)Nc3onc(C)c3C)cc2)cc1 | ? | 4.2 | -3 | 21 | 14% | -0.2 | -15 | 0.9
27 | COc1ccc(C(=O)Nc2cccc(C)c2)cc1 | 1.3 | 0.8 | 5 | -20 | 24% | -7.0 | -7 | .
28 | CCOc1cc(-c2nc(-c3ccc(C)nc3OC)no2)cc(OCC)c1OCC | 1.8 | . | . | -9 | 0% | . | -15 | .
29 | NC(=O)[C@@H]1CCOc2c(I)cc([N+](=O)[O-])cc2C(=O)N[C@@H](CO)C(=O)NCC(=O)N1 | -2.5 | 3.0 | . | -3 | 30% | -0.4 | -13 | -2.1
30 | CCOC(=O)c1sc(NNC(=O)c2ccc(F)cc2)nc1C | -0.7 | 1.7 | 11 | ? | 2% | -0.6 | -16 | 2.0

Brought forward from above: four entries, then new ones.
nr | SMILES | RanGTP-Imp inh | LANA-H2A inh | Beta cell apopt | Calb FLC | Vif A3G | A1 inh | T cruzi repl | AF4-AF9 inh
27 | COc1ccc(C(=O)Nc2cccc(C)c2)cc1 | 1.3 | 0.8 | 5 | -20 | 24% | -7.0 | -7 | .
28 | CCOc1cc(-c2nc(-c3ccc(C)nc3OC)no2)cc(OCC)c1OCC | 1.8 | . | . | -9 | 0% | . | -15 | .
29 | NC(=O)[C@@H]1CCOc2c(I)cc([N+](=O)[O-])cc2C(=O)N[C@@H](CO)C(=O)NCC(=O)N1 | -2.5 | 3.0 | . | -3 | 30% | -0.4 | -13 | -2.1
30 | CCOC(=O)c1sc(NNC(=O)c2ccc(F)cc2)nc1C | -0.7 | 1.7 | 11 | ? | 2% | -0.6 | -16 | 2.0
31 | O=C(CC(c1ccccc1)c1ccccc1)NCc1cccnc1 | 3.6 | -3.3 | 0 | -4 | 2% | -0.2 | -8 | .
32 | COc1cccc(/C=N/NC(=O)c2[nH]nc3c2CCc2ccccc2-3)c1 | 0.5 | -1.6 | 39 | -7 | -2% | 0.1 | 10 | -0.9
33 | CC(=O)Oc1ccc(C(=O)Nc2nnc(C)s2)cc1 | 4.1 | 1.7 | . | -7 | 10% | -4.6 | -21 | .
34 | O=C(NCc1ccccc1)c1ccccc1CO | 4.3 | -2.0 | 6 | -9 | 1% | 0.3 | 9 | .
35 | CCc1ccc2[nH]c(=O)c(CN(Cc3ccccc3)Cc3nnnn3Cc3ccco3)cc2c1 | -0.4 | 1.0 | -5 | 2 | ? | 0.3 | 7 | .
36 | CCCCN(CC)Cc1ccc(CNC(=S)Nc2ccc(C)cc2Cl)o1 | -0.3 | -1.7 | -3 | -3 | -15% | 0.1 | 32 | 1.1
37 | Cc1oc(C(=O)O)cc1COc1ccc2c3c(c(=O)oc2c1C)CCC3 | -0.6 | -1.3 | -6 | 0 | 15% | -0.3 | -11 | .
38 | Cc1ccc(NCCC(=O)c2cccs2)cc1 | -2.7 | 4.4 | -4 | 2 | 15% | -4.7 | 8 | 0.9
39 | C/C(=N/NC(=O)NC12CC3CC(CC(C3)C1)C2)c1ccccc1 | 0.5 | -4.0 | 5 | 0 | -11% | -0.5 | 28 | 5.8
40 | O=C(CN1C(=O)CCSc2ccc(S(=O)(=O)N3CCCC3)cc21)Nc1ccccc1Cl | -1.8 | 0.8 | -4 | -3 | . | 0.2 | 6 | -0.1
41 | COc1cc(C(=O)N2CCN(CC(O)COc3ccccc3)CC2)cc(OC)c1OC (stereo not given) | 7.2 | -0.8 | -4 | 5 | . | -0.5 | 8 | -2.7
42 | Oc1oc(-c2ccco2)nc1C=Nc1ccccc1 | 1.4 | -0.4 | -9 | -2 | -3% | -0.5 | 16 | 15
43 | CCc1ccc2[nH]c(=O)c(CN(CCN(CC)CC)C(=S)NCc3ccco3)cc2c1 | 3.2 | -1.8 | 4 | -10 | 1% | -1.3 | 49 | ?
44 | COCCN(CCOC)S(=O)(=O)c1ccc(C(=O)Nc2nnc(CSC)o2)cc1 | 5.1 | -1.3 | -3 | -13 | -2% | 0.1 | -4 | -9.5
45 | Cc1cc(NC(=O)Nc2ccc(OCc3ccccc3)cc2)n(C)n1 | 1.2 | -0.2 | -2 | -7 | 1% | 0.0 | -19 | .
46 | CS(=O)(=O)Nc1ccccc1C(=O)NCc1ccco1 | -0.4 | 1.6 | 1 | 7 | 17% | 0.0 | 10 | .
47 | CCCCn1c(N)c(N(CC)C(=O)c2cccc(OCc3ccccc3)c2)c(=O)[nH]c1=O | . | -1.1 | -6 | . | -7% | -0.6 | . | -2.8
48 | CC(=O)C1=C(O)C(=O)N(c2ccc(O)cc2)C1c1ccccc1F (stereo not given) | -0.6 | -0.5 | . | 6 | -1% | -0.1 | -5 | 0.1
49 | CCCOc1cccc(/C=N/NC(=O)c2csc(C)c2C)c1 | -0.2 | 3.4 | -3 | 2 | 12% | 0.5 | 9 | .
50 | COc1ccc(-n2cnc3cc(C(=O)NCCN4CCOCC4)ccc32)cc1 | -2.8 | 2.8 | -6 | 10 | -9% | -0.1 | -21 | -1.4
51 | CCN(CC)S(=O)(=O)c1cc(NC(=O)c2ccc3c(c2)NC(=O)C(C)S3)ccc1C (stereo not given) | . | -3.6 | 15 | . | -13% | -0.2 | . | -2.6
52 | COC(=O)c1ccc(C(=O)OC)c(NC(=O)COC(=O)CC2CC3CCC2C3)c1 (stereo not given) | 2.8 | 1.8 | -1 | -4 | 12% | 0.9 | 12 | .
53 | Cc1cccc(COc2ccccc2C(=O)NC2CCC(O)CC2)c1 (stereo not given) | . | -2.6 | -5 | -2 | 0% | 0.6 | -1 | -1.1
54 | CCOc1ccc2cc(S(=O)(=O)n3ccnc3C)ccc2c1 | ? | -2.6 | -3 | 1 | -4% | 0.7 | -7 | .
55 | O=c1[nH]c(CN2CCN(S(=O)(=O)c3cccs3)CC2)nc2c(Br)cc(Br)cc12 | 3.4 | 0.6 | 7 | 39 | . | 0.0 | 11 | 1.5
56 | O=C(Nc1ccc(F)cc1)c1sccc1SCc1cccc(C(F)(F)F)c1 | 4.6 | -0.4 | 3 | 0 | -1% | 0.4 | ? | .
57 | Cc1ccc(CNCCCSc2ncccn2)cc1 | -1.5 | -5.0 | . | -15 | 15% | -3.5 | 31 | -3.9
